KCNQ2 inh: KCNQ2 potassium channel inhibitors, primary screen, cell-based, CHO-K1, FluxOR thallium flux, B-score (AID 2156) | Potassium voltage-gated channel subfamily KQT member 2 (Rattus norvegicus), O88943 | 20 min; hits give low values; only compounds with negative scores are shown here; some inactives read as strong as hits | B-score at 10 µM | hit rate 1.1% among 310,000;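 active = fluorescence ratio B-score at most minus 3 library SDs, with starting brightness B-score within 2 library SDs, cut at about -5.5 in these data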
Target sequence (O88943 whole entry, looked up): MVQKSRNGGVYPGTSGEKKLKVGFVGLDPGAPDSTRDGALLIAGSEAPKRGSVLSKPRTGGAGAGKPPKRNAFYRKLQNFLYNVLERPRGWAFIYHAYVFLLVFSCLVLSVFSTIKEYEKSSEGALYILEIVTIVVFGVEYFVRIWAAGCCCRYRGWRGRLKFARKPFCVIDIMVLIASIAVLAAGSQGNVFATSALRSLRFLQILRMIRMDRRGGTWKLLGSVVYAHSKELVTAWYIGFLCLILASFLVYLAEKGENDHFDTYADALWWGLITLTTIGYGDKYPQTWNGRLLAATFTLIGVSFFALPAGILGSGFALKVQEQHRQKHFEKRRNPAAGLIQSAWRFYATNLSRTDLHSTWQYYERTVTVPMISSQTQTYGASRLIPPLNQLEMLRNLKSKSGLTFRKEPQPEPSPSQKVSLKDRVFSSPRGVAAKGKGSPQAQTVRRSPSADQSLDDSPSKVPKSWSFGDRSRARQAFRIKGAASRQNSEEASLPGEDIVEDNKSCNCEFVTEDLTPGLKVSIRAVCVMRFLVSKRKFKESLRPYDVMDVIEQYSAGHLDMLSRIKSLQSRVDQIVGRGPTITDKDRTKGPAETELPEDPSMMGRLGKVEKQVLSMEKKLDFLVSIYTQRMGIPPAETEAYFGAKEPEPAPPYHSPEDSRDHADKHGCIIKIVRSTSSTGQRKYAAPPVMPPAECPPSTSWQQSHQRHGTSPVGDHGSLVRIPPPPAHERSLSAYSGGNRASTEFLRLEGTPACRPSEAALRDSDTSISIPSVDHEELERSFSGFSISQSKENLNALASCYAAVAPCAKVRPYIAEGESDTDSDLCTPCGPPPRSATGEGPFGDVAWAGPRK
KCNQ2 inh baseline: further read-out of KCNQ2 inh, marked with its call; B-score; measured here: initial fluorescence intensity artifact check;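 brightness before thallium and not channel activity; 0 = typical well and far values either way flag optical interference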
Active calls of the source: *. These rows are one share of the data; count on the stated rates, not on these rows.

`COc1cc(CN2CCN(C3CCC3)CC2CCO)cc(OC)c1` (stereo unspecified) gave KCNQ2 inh inactive and KCNQ2 inh baseline 0.69.
Screening N#Cc1c(NC(=O)CSc2ncc(-c3ccccc3)n2CC2CCCO2)sc2c1CCCC2 (stereo unspecified) returned KCNQ2 inh inactive and KCNQ2 inh baseline -0.45.
`O=C(CN1N=C(c2ccc(Cl)cc2)CCC1=O)NCc1cccnc1` gave KCNQ2 inh inactive and KCNQ2 inh baseline 0.44.
Screening COc1ccc(NC(=O)Cn2c(-c3ccc(OC)cc3)cn(-c3ccc(C)cc3)c2=O)cc1 returned KCNQ2 inh inactive and KCNQ2 inh baseline -0.07.
`COc1ccc(NC(=O)COC(=O)Cc2c(F)cccc2Cl)cc1` gave KCNQ2 inh inactive and KCNQ2 inh baseline -0.38.
For COc1cccc(CC2(CO)CCCN(Cc3cn[nH]c3C3CCCCC3)C2)c1 (stereo unspecified) the results were KCNQ2 inh inactive and KCNQ2 inh baseline -0.19.
For O=[N+]([O-])c1ccc(N2CCN(c3ccccc3O)CC2)cc1 the results were KCNQ2 inh inactive and KCNQ2 inh baseline 0.04.
`Cc1noc(C)c1S(=O)(=O)N(C)Cc1ccccc1` gave KCNQ2 inh inactive and KCNQ2 inh baseline -0.05.
For CN(CC(=O)NCCc1ccc(F)cc1)Cc1cccc(Cl)c1 the results were KCNQ2 inh inactive and KCNQ2 inh baseline -0.15.
For COc1ccccc1NC(=O)C1=C(C)NC(=O)NC1c1ccc(C)s1 (stereo unspecified) the results were KCNQ2 inh inactive and KCNQ2 inh baseline -1.7.
`CCc1ccc(OCCCC(=O)Nc2ccc(S(N)(=O)=O)cc2)cc1` gave KCNQ2 inh inactive and KCNQ2 inh baseline -0.5.
`Cc1ccc(S(=O)(=O)N2CCN(C(=O)c3ccccc3-c3nc4ccccc4s3)CC2)c(C)c1` gave KCNQ2 inh inactive and KCNQ2 inh baseline 0.46.
`COc1ccc(/C(O)=C2/C(=O)C(=O)N(CC3CCCO3)C2c2cccc(O)c2)cc1` (stereo unspecified) gave KCNQ2 inh inactive and KCNQ2 inh baseline 0.5.
CC(C)OC(=O)CCNc1n[nH]c(=O)[nH]c1=O was read as KCNQ2 inh inactive and KCNQ2 inh baseline -1.3.
`O=C(Cc1ccccc1)NCC1OCCc2ccccc21` (stereo unspecified) gave KCNQ2 inh inactive and KCNQ2 inh baseline 2.2.
`Cc1ccc(C(C)C)c(OCC(=O)NC(=S)Nc2ccccc2N2CCOCC2)c1` gave KCNQ2 inh -6.5* and KCNQ2 inh baseline 1.7*.
`Cc1cc(S(=O)(=O)Nc2c(NC3CCCCC3)c3ccccc3oc2=O)ccc1F` gave KCNQ2 inh inactive and KCNQ2 inh baseline 0.8.
For CC(=O)c1ccc(N2CCN(C(=O)C3CCN(S(=O)(=O)c4ccc5c(c4)CC(C)N5C(C)=O)CC3)CC2)cc1 (stereo unspecified) the results were KCNQ2 inh inactive and KCNQ2 inh baseline -0.56.
For COc1cc(CNC(=O)c2cccc(COc3ccc(Cl)cc3)c2)cc(OC)c1 the results were KCNQ2 inh -5.9* and KCNQ2 inh baseline -1.3*.
`CCOC(=O)CC(=O)CSc1nc2c(c(C)c1C#N)CCC2` gave KCNQ2 inh inactive and KCNQ2 inh baseline 0.32.
CCCN(Cc1ccc(N(C)C)cc1)CC1CC1 was read as KCNQ2 inh inactive and KCNQ2 inh baseline 3.5.
CCOC(=O)C1CCN(C(=O)C2(NC(=O)Nc3ccccc3Cl)CCCCC2)CC1 was read as KCNQ2 inh inactive and KCNQ2 inh baseline -0.48.
CN(C)c1ccc(/C=N/OC(=O)Nc2ccccc2Cl)cc1 was read as KCNQ2 inh inactive and KCNQ2 inh baseline 0.49.
FC(F)(F)c1cnc(-c2cnc(-c3ccccn3)nc2)c(Cl)c1 was read as KCNQ2 inh inactive and KCNQ2 inh baseline 1.
For COc1cc(OC)c2ccc(=O)oc2c1C(CCN1CCCC(C)C1)c1ccc2c(c1)OCO2 (stereo unspecified) the results were KCNQ2 inh inactive and KCNQ2 inh baseline -0.32.
Screening COc1cc(C=O)ccc1OCc1ccccc1Br returned KCNQ2 inh inactive and KCNQ2 inh baseline 1.
Screening COc1cc(/C=C/C(=O)OC2CC3CCC2(C)C3(C)C)ccc1O (stereo unspecified) returned KCNQ2 inh inactive and KCNQ2 inh baseline 2.3.
`Cc1ccccc1N=C/C=C1/C=C(c2ccccc2)OC(C)(C)O1` gave KCNQ2 inh inactive and KCNQ2 inh baseline -0.48.
Screening CCCCCCn1cnc2c(c1=O)c1nc3ccccc3nc1n2/N=C/c1ccco1 returned KCNQ2 inh inactive and KCNQ2 inh baseline 0.11.
`CCc1ccc(C(O)(CC)C(CN2CCOCC2)c2ccccc2)cc1` (stereo unspecified) gave KCNQ2 inh inactive and KCNQ2 inh baseline 0.54.
Screening O=C(CSc1nc2ccccc2c(=O)n1-c1cccc(C(F)(F)F)c1)NC1CC1 returned KCNQ2 inh inactive and KCNQ2 inh baseline 0.01.
CC1(C)NC(=O)N(CC(O)CN(c2ccccc2)S(=O)(=O)c2ccc([N+](=O)[O-])cc2)C1=O (stereo unspecified) was read as KCNQ2 inh inactive and KCNQ2 inh baseline -0.07.
`O=C(CN(C(=O)Cn1nnc(-c2cccs2)n1)c1cnc2ccccc2c1)NCC1CCCO1` (stereo unspecified) gave KCNQ2 inh inactive and KCNQ2 inh baseline 0.86.
Screening c1ccc(OCCSc2nnc3sc4ccccc4n23)cc1 returned KCNQ2 inh inactive and KCNQ2 inh baseline 0.78.
`COCCNc1oc(-c2ccc(C)cc2)nc1C#N` gave KCNQ2 inh inactive and KCNQ2 inh baseline -1.2.
For CCOC(=O)c1sc2nc(C)c([N+](=O)[O-])c(COC)c2c1N the results were KCNQ2 inh inactive and KCNQ2 inh baseline 0.13.
CC(=O)c1cccc(N(CC(=O)O)S(C)(=O)=O)c1 was read as KCNQ2 inh inactive and KCNQ2 inh baseline 2.8.
`Cc1ccc(CNc2nc(-c3cccs3)nc3ccccc23)cc1` gave KCNQ2 inh inactive and KCNQ2 inh baseline 0.45.
`O=C(c1ccc([N+](=O)[O-])cc1)n1nc(-c2ccccc2)nc1NCc1ccc(F)cc1` gave KCNQ2 inh inactive and KCNQ2 inh baseline 1.
For O=C(CSCc1ccc([N+](=O)[O-])cc1)NCCSCc1ccccc1 the results were KCNQ2 inh inactive and KCNQ2 inh baseline 1.8.
CSC(=Nc1ccccc1)Nc1ccccc1 was read as KCNQ2 inh inactive and KCNQ2 inh baseline -0.41.
Screening CCCCNC(=S)Nc1ccc2cn[nH]c2c1 returned KCNQ2 inh inactive and KCNQ2 inh baseline 0.06.
`Cc1cccc(-c2nsc(SCC(=O)Nc3nccs3)n2)c1` gave KCNQ2 inh inactive and KCNQ2 inh baseline 0.14.
`CC(C)(C)OC(=O)C1C(=O)CC(C)(O)C(C(=O)OC(C)(C)C)C1c1cccnc1` (stereo unspecified) gave KCNQ2 inh inactive and KCNQ2 inh baseline -0.02.
CC(CCc1ccccc1)C(=O)NO (stereo unspecified) was read as KCNQ2 inh inactive and KCNQ2 inh baseline 0.99.
Cc1ccc(C(OC(=O)c2ccco2)C(=O)NC(C)(C)C)cc1 (stereo unspecified) was read as KCNQ2 inh inactive and KCNQ2 inh baseline 0.56.
`COc1cccc(C(C(=O)NC2CCCCC2)N(C(=O)c2cccs2)c2ccc3c(c2)OCO3)c1` (stereo unspecified) gave KCNQ2 inh inactive and KCNQ2 inh baseline -0.35.
Screening Cc1[nH]c2ccccc2c1C(=O)C(=O)NCc1cccs1 returned KCNQ2 inh inactive and KCNQ2 inh baseline 0.38.
Cc1nc(NC(=O)c2ccccc2)sc1C was read as KCNQ2 inh inactive and KCNQ2 inh baseline -0.13.
Cc1ccc(N(C(C)C(=O)O)S(=O)(=O)c2cccnc2)cc1 (stereo unspecified) was read as KCNQ2 inh inactive and KCNQ2 inh baseline 2.2.
Screening N/C(=N\OC(=O)C(c1ccccc1)c1ccccc1)c1cccnc1 returned KCNQ2 inh inactive and KCNQ2 inh baseline 1.3.
`O=C(CCN1C(=O)/C(=C/C=C/c2ccccc2)SC1=S)Nc1cccnc1` gave KCNQ2 inh inactive and KCNQ2 inh baseline 1.1.
`CN(C1=C(N2CCCCC2)C(=O)c2ccccc2C1=O)c1ccccc1` gave KCNQ2 inh inactive and KCNQ2 inh baseline 0.47.
Screening O=C(c1ccc(Br)o1)N1CCN(C23CC4CC(CC(C4)C2)C3)CC1 returned KCNQ2 inh inactive and KCNQ2 inh baseline -0.86.
`CCc1c(C)sc(NC(=O)C2CC(c3c(F)cccc3Cl)=NO2)c1C#N` (stereo unspecified) gave KCNQ2 inh inactive and KCNQ2 inh baseline -0.32.
`COC(=O)C1=C(C)N(CCCC(=O)O)C(=O)NC1c1ccc(C#N)cc1` (stereo unspecified) gave KCNQ2 inh inactive and KCNQ2 inh baseline -1.1.
CCOC(=O)c1c(C2CC2)csc1NC(=O)COC(=O)CCS(=O)(=O)c1ccc(C)cc1 was read as KCNQ2 inh inactive and KCNQ2 inh baseline -0.98.
Screening COc1ccc(C(=O)/C=C/c2ccc(N(C)C)cc2)c(OC)c1 returned KCNQ2 inh inactive and KCNQ2 inh baseline 5.9.
`Cc1cc(S(=O)(=O)N2CCOCC2)ccc1OCC(=O)NCCCn1ccnc1` gave KCNQ2 inh inactive and KCNQ2 inh baseline 1.6.
O=C(CCc1c[nH]c2ccccc12)NCc1ccco1 was read as KCNQ2 inh inactive and KCNQ2 inh baseline 0.4.

Reprinted from the listing for reference:
Cc1ccc(N(C(C)C(=O)O)S(=O)(=O)c2cccnc2)cc1 (stereo unspecified) was read as KCNQ2 inh inactive and KCNQ2 inh baseline 2.2.
Screening N/C(=N\OC(=O)C(c1ccccc1)c1ccccc1)c1cccnc1 returned KCNQ2 inh inactive and KCNQ2 inh baseline 1.3.
`O=C(CCN1C(=O)/C(=C/C=C/c2ccccc2)SC1=S)Nc1cccnc1` gave KCNQ2 inh inactive and KCNQ2 inh baseline 1.1.
`CN(C1=C(N2CCCCC2)C(=O)c2ccccc2C1=O)c1ccccc1` gave KCNQ2 inh inactive and KCNQ2 inh baseline 0.47.
Screening O=C(c1ccc(Br)o1)N1CCN(C23CC4CC(CC(C4)C2)C3)CC1 returned KCNQ2 inh inactive and KCNQ2 inh baseline -0.86.
`CCc1c(C)sc(NC(=O)C2CC(c3c(F)cccc3Cl)=NO2)c1C#N` (stereo unspecified) gave KCNQ2 inh inactive and KCNQ2 inh baseline -0.32.
`COC(=O)C1=C(C)N(CCCC(=O)O)C(=O)NC1c1ccc(C#N)cc1` (stereo unspecified) gave KCNQ2 inh inactive and KCNQ2 inh baseline -1.1.
CCOC(=O)c1c(C2CC2)csc1NC(=O)COC(=O)CCS(=O)(=O)c1ccc(C)cc1 was read as KCNQ2 inh inactive and KCNQ2 inh baseline -0.98.
Screening COc1ccc(C(=O)/C=C/c2ccc(N(C)C)cc2)c(OC)c1 returned KCNQ2 inh inactive and KCNQ2 inh baseline 5.9.
`Cc1cc(S(=O)(=O)N2CCOCC2)ccc1OCC(=O)NCCCn1ccnc1` gave KCNQ2 inh inactive and KCNQ2 inh baseline 1.6.
O=C(CCc1c[nH]c2ccccc12)NCc1ccco1 was read as KCNQ2 inh inactive and KCNQ2 inh baseline 0.4.

(listing goes on)
For COc1cc(/C=N/O)cc(Br)c1OCc1ccc(Cl)cc1 the results were KCNQ2 inh inactive and KCNQ2 inh baseline 0.94.
`COc1ccc(CC(=O)Nc2ccc(C(=O)Nc3nccs3)cc2)cc1OC` gave KCNQ2 inh inactive and KCNQ2 inh baseline -0.19.
CCN(CC)CC(=O)NCC1(c2ccccc2)CCOCC1 was read as KCNQ2 inh inactive and KCNQ2 inh baseline 0.07.
C(=N\Nc1nc(N2CCCCC2)nc(N2CCCCC2)n1)/c1c[nH]c2ccccc12 was read as KCNQ2 inh -9.3* and KCNQ2 inh baseline -0.36*.
`COC(=O)C1C(O)=C(C(C)=Nc2cccc3ccccc23)C(=O)CC1(C)C` (stereo unspecified) gave KCNQ2 inh inactive and KCNQ2 inh baseline -1.2.
`CC(C)C(=O)Nc1ccccc1C(=O)OCC(=O)c1ccc2c(c1)OCCO2` gave KCNQ2 inh inactive and KCNQ2 inh baseline 1.4.
O=C(NC12CC3CC(CC(C3)C1)C2)C12CC3CC(C1)CC(n1cnc(Cl)n1)(C3)C2 was read as KCNQ2 inh inactive and KCNQ2 inh baseline -0.89.
`Cc1nc2ccc(C(C(F)(F)F)(C(F)(F)F)C(F)(F)F)cc2[nH]1` gave KCNQ2 inh inactive and KCNQ2 inh baseline 0.58.
CSc1ccccc1C(=O)NC1CCCC1 was read as KCNQ2 inh inactive and KCNQ2 inh baseline 0.37.
`CS(=O)(=O)c1nc(S(=O)(=O)c2ccc(Cl)cc2)c(NCCCN2CCOCC2)s1` gave KCNQ2 inh inactive and KCNQ2 inh baseline -0.12.
For Cc1cccc(OCc2nnc(SCC(=O)c3cccs3)n2C)c1C the results were KCNQ2 inh inactive and KCNQ2 inh baseline -3.4.
`OCCC1CN(Cc2nc3c(s2)CCCC3)CCN1Cc1ccsc1` (stereo unspecified) gave KCNQ2 inh inactive and KCNQ2 inh baseline -0.07.
`O=C(C1CCCCC1)N(CCN1CCCC1)c1nc2ccccc2s1` gave KCNQ2 inh inactive and KCNQ2 inh baseline 0.18.
Cc1c(C(=O)NCCN(C)C)oc2ccc(S(=O)(=O)N3CCC4(CC3)OCCO4)cc12 was read as KCNQ2 inh inactive and KCNQ2 inh baseline 0.31.
`Cc1ccc(Cl)cc1N1CCN(C(=O)C2CCC(=O)N(C3CCCCCC3)C2)CC1` (stereo unspecified) gave KCNQ2 inh inactive and KCNQ2 inh baseline 0.04.
For Fc1ccc(-c2cnn3c(-c4cccs4)ccnc23)cc1 the results were KCNQ2 inh inactive and KCNQ2 inh baseline 0.68.
Screening CCOC(=O)/C=c1\s/c(=C\c2ccc3c(c2)OCCO3)c(=O)n1CC(=O)NCC1CCCO1 (stereo unspecified) returned KCNQ2 inh inactive and KCNQ2 inh baseline 2.
For O=C(COc1ccc(Cl)cc1)NCCS(=O)(=O)N1CCN(c2ccc(F)cc2)CC1 the results were KCNQ2 inh inactive and KCNQ2 inh baseline -0.57.

From PubChem BioAssay
